Mtb growth: M. tuberculosis H37Rv growth inhibitors, H37Rv strain (AID 1626). M. tuberculosis H37Rv growth inhibition; higher % means a stronger effect. one-dose inhibition, % at 10 µM; IC50 in µM for titrated hits. 220,000 compounds, 0.95% hits;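 active means confirmed in a dose series; inconclusive means inhibition above 80% but not taken into the dose series; inactive means below 80% or under 30% at every dose of the series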;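 further: bacteria incubated seven days before Alamar blue readout; 0% = bacteria only wells and 100% = bacteria with antibiotic wells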
Mtb bLac sens: beta-lactam sensitization of Mtb H37Rv, H37Rv | 330,000 compounds, 0.27% hits | M. tuberculosis H37Rv growth with meropenem, percent inhibition; hits of this screen are not shown here | inhibition, % at 25 µM | AID 434955, 2010;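 active means about 74% or more and at least 40 points above the plate without the antibiotic, then above 30% in a dose series; inconclusive means first-round hits that could not be retested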;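 further: growth measured after seven days incubation then overnight dye step; 0% = bacteria only wells and 100% = bacteria with antibiotic; twin plates without the antibiotic show which effects depend on it; some results filed as inactive read as strong as hits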
YopH PTP inh: YopH tyrosine phosphatase inhibitors, primary screen, biochemical, fluorescence Ex485/Em525 | inhibition, %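 (about 10 µM by stock and volumes)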 | 140,000 compounds, 0.16% hits | AID 898, 2007;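 active means inhibition of 50% or more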;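 further: controls were vehicle for no effect and minimum signal wells for full effect; inactives centre near -20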
RecA splice inh: Mtb RecA intein splicing inhibitors, primary screen, biochemical, fluorescence, HTS. Protein RecA (Mycobacterium tuberculosis (strain ATCC 25618 / H37Rv)), P9WHJ3. cell-free RecA intein splicing. inhibition, %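 (about 9 µM by stock and volumes)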. 290,000 compounds, 0.75% hits; in the data active means inhibition above about 30%; inconclusive means no clear call, values can overlap the other calls;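 further: 0% = vehicle wells and 100% = reference inhibitor control wells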
Target sequence (P9WHJ3 whole entry, looked up, canonical isoform): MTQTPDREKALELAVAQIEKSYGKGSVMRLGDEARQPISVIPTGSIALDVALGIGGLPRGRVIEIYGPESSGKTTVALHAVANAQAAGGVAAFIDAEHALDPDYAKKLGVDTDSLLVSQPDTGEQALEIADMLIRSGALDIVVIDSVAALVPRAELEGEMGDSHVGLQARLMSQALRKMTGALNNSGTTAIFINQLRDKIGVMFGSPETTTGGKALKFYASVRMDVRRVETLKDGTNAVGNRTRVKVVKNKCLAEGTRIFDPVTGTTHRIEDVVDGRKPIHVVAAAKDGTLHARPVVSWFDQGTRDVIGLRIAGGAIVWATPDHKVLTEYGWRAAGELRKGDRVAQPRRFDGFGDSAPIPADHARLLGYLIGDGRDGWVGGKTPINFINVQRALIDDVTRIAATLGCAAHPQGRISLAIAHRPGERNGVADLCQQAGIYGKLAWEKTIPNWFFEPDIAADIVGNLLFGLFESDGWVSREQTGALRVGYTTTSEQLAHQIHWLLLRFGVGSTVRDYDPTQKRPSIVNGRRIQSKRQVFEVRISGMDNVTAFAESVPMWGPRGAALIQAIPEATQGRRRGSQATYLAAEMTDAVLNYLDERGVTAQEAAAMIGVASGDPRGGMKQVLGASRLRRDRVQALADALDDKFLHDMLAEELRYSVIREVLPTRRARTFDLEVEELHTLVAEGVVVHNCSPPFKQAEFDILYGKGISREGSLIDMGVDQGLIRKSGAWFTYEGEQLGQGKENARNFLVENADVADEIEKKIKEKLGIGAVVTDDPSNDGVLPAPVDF
Arbovirus inh: antivirals against arbovirus infection, primary screen, cell-based, full library, 10K replicate subset; AID 1251, 2008; arbovirus infection cell-based antiviral screen; inhibition, % at 10 µM; 200,000 compounds, 0.37% hits;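 active means inhibition from about 30%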;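 further: bluetongue infection of BSR cells; cell survival read as ATP light after 72 h; 0% = infected wells without compound and 100% = uninfected wells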
Arbovirus inh repeat: also measured in Arbovirus inh; calls as there; inhibition, %; measured here: 10K subset replicate screen; many hits read low in the repeat;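 first of two repeat runs on a subset; 0% = infected and 100% = uninfected wells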
The depositor's hits bear a star; u = inconclusive; x = no result given. Some of the compounds tested; count on the stated rates, not on these rows.

SMILES	Mtb growth	Mtb bLac sens	YopH PTP inh	RecA splice inh	Arbovirus inh	others
O=C(CCC1COc2ccccc2O1)Nc1ncccc1O (centres undefined)	-6%	-13	-9	2.1	5
Cc1ccccc1CN(C)CC(=O)Nc1ccccc1-c1ccccc1	7%	22	18	27	-36
O=C(Cn1nc(Cc2cccnc2)c2ccccc2c1=O)NCc1ccc2c(c1)OCO2	-6%	-8	x	2.2	7	Arbovirus inh repeat=-3
CC(C)C[C@H]1CN=C(Nc2ccccc2)N1CC1CCC1	x	-6	x	0.3	x
COC(=O)c1c(C)[nH]c(C(=O)/C=C/c2cccc(Cl)c2)c1C	-2%	-1	-34	13	0
CCc1nnc(NC(=O)c2ccc3nc(CC)c(CC)nc3c2)s1	65%	x	x	0.8	5
COc1ccc(-c2nnc(SCC(=O)c3cccs3)n2-c2ccc(Cl)cc2)cc1	3%	-4	2	-0.9	-5
Cc1ccccc1N1CC(C(=O)Nc2ccc(S(=O)(=O)N3CCCCC3)cc2)CC1=O (centres undefined)	x	3	x	-0.5	x
CC(=O)N1N=C2C3CCN(CC3)C2C1c1cccc2ccccc12 (centres undefined)	2%	1	-32	-4.0	-1
COc1ccc(O)c(C(=O)c2cc(C#N)c(=O)n(CCN3CCOCC3)c2)c1	-2%	3	-46	-10	8
Cc1c(/C=N/N=C2\CCC3C4CCc5cc(O)ccc5C4CCC23C)cnn1C (centres undefined)	-1%	1	-14	-1.4	-14
COc1ccc(/C=C/c2cc[n+](C(=O)Cc3ccccc3)cc2)cc1	4%	0	x	-5.1	-15
C/C(=N\NC(=S)NCc1ccccc1)c1ccc2c(c1)OCCO2	-2%	86	x	2.0	7
Nc1ccc(S(=O)(=O)NC2=NCCCCC2)cc1N	4%	-7	x	-3.7	3
CC1(C)CC(=O)C=C(Nc2ccc(Br)cn2)C1	-2%	-7	-30	2.9	x
COc1cccc(CNC(=O)CCC(=O)N2C[C@H]3C[C@H](C2)c2cccc(=O)n2C3)c1OC	x	-5	x	3.8	x
COc1cccc(C(=O)NNC2=C(C(=O)C(F)(F)F)CCC2)c1	9%	15	x	6.4	x
CCOC(=O)C(C)n1cnc2sc(C)c(C)c2c1=O (centres undefined)	-7%	-6	-11	2.9	-2
N/C(Cc1ccc([N+](=O)[O-])cc1)=N\OC(=O)c1cccc(Br)c1	20%	-1	x	9.2	5
CC(=O)N1CCN(C23CC4CC(CC(C4)C2)C3)CC1	x	-4	x	0.6	x
O=C(NNC(=O)C1CC=CCC1C(=O)O)c1cccs1 (centres undefined)	4%	-1	x	1.9	0
CNc1nc(Cl)nc(Nc2ccccc2)n1	-1%	3	x	-2.2	4
NC(=O)c1ccccc1OCCOCCOCCOc1ccccc1C(N)=O	1%	3	-13	0.0	5
CCOC(=O)C(NC(C)=O)(Nc1ccc(S(=O)(=O)Nc2ncccn2)cc1)C(F)(F)F (centres undefined)	8%	3	x	-1.0	7
CC(C)c1nc2sc3c(c2c(=O)o1)CCCC3	68%	100	-53	6.7	3
SMILES	Mtb growth	Mtb bLac sens	YopH PTP inh	RecA splice inh	Arbovirus inh	others
O=C(c1ccc([N+](=O)[O-])o1)N1CCc2ccccc2C1	48%	100	x	3.9	x
COc1ccc(-n2c(SCC(=O)Nc3ccc(C(N)=O)cc3)nc3ccccc3c2=O)cc1OC	x	-3	x	0.2	x
CCC(C)COC(=O)c1ccc(C(=O)O)cc1 (centres undefined)	x	71	-19	-2.1	9
CCOC(=O)C1=C(CSc2nc(C)cc(C)c2C#N)OC(N)=C(C#N)C1c1cccs1 (centres undefined)	-1%	-4	-39	x	0
CCOc1ccc(N(Cc2cc3cc(C)ccc3[nH]c2=O)S(=O)(=O)c2ccccc2)cc1	x	-2	x	-4.7	x
CCOC(=O)C1(CCOC)CCN(Cc2ccc(C(=O)OC)cc2)CC1	-9%	-2	x	-2.6	4
N#CCN1C(=O)C(=O)N(Cc2cccc(C(F)(F)F)c2)C1=O	x	0	x	-0.8	x
Cc1c(Cl)cccc1NC(=S)NC1CC1	-3%	-4	-9	-1.3	7
CCc1ccc2nc(N)sc2c1	u	93	x	0.7	2
CCC(Nc1nc(-c2ccccc2)nc2ccccc12)C(=O)O (centres undefined)	-7%	-7	-7	-0.3	7
O=C(c1cccc([N+](=O)[O-])c1)c1cc2ccccc2o1	-4%	-3	-33	-0.4	4
O=C1CN=C(c2ccccc2)c2oc3ccc(Br)cc3c2N1	1%	11	-31	1.9	1
COc1ccc(NC(=O)C(=O)N/N=C/c2cc(C)n(-c3cccc(Cl)c3Cl)c2C)c(OC)c1	5%	77	-13	-3.4	32*
CCOC(=O)c1cc(NC(=O)N(C(C)C)C2CCCCC2)c(C)nc1C	x	-3	x	-0.8	x
O=C(CN(Cc1ccccc1)C(=O)c1ccco1)NCc1ccc(F)cc1	2%	-6	-15	2.2	2
O=C(O)c1ccc(S(=O)(=O)c2ccc3c(c2)C(=O)N(c2ccc(O)cc2)C3=O)cc1	-19%	-3	x	-4.2	x
Cc1cccc(NC(=O)CSc2nc(C)c(Cc3ccccc3)c(=O)[nH]2)c1C	-1%	0	x	6.9	-7
CCn1c(SCC(=O)Nc2ccc3[nH]c(=O)[nH]c3c2)nnc1-c1ccccc1	-4%	-2	x	-0.2	x
Nc1ccnc(C(F)(F)F)c1C(=O)c1ccccc1	2%	0	-38	0.7	9
O=Cc1c(NCCN2CCOCC2)c2ccccc2[nH]c1=O	x	-4	x	0.8	x
COC(=O)Cc1c(O)ccn(Cc2cccc3ccccc23)c1=O	0%	12	-47	-2.9	9
O=C(NCc1ccccc1Cl)C(=O)c1c[nH]c2ccccc12	9%	17	x	1.6	-6
COc1ccccc1NC(=O)Cn1cncc1-c1ccc([N+](=O)[O-])cc1	x	-4	-29	0.2	-3
Cc1ccc(OCc2nnc(N)s2)cc1C	-2%	-5	x	-0.5	x
Cc1ccccc1CC1(CO)CCCN(Cc2nc(-c3cccs3)oc2C)C1 (centres undefined)	6%	10	x	1.1	-3

An excerpt from above in order of molar mass, largest number first:
SMILES	Mtb growth	Mtb bLac sens	YopH PTP inh	RecA splice inh	Arbovirus inh	others
CCOc1ccc(N(Cc2cc3cc(C)ccc3[nH]c2=O)S(=O)(=O)c2ccccc2)cc1	x	-2	x	-4.7	x
Cc1ccccc1CC1(CO)CCCN(Cc2nc(-c3cccs3)oc2C)C1 (centres undefined)	6%	10	x	1.1	-3
CCn1c(SCC(=O)Nc2ccc3[nH]c(=O)[nH]c3c2)nnc1-c1ccccc1	-4%	-2	x	-0.2	x
N/C(Cc1ccc([N+](=O)[O-])cc1)=N\OC(=O)c1cccc(Br)c1	20%	-1	x	9.2	5
CC(=O)N1N=C2C3CCN(CC3)C2C1c1cccc2ccccc12 (centres undefined)	2%	1	-32	-4.0	-1
CC1(C)CC(=O)C=C(Nc2ccc(Br)cn2)C1	-2%	-7	-30	2.9	x
CCc1ccc2nc(N)sc2c1	u	93	x	0.7	2

The results go on.
SMILES	Mtb growth	Mtb bLac sens	YopH PTP inh	RecA splice inh	Arbovirus inh	others
Cc1cc(NC2C3CC4CC(C3)CC2C4)n2nnnc2n1 (centres undefined)	-2%	-1	-18	-1.6	0
CC(NC(=O)c1ccc(F)cc1)c1nc2ccccc2n1Cc1ccccc1F (centres undefined)	10%	-8	-13	x	-11
CCOC(=O)C1CCN(C(c2ccccn2)c2c(C)[nH]c3ccccc23)CC1 (centres undefined)	-2%	1	19	-1.7	-12
Cc1ccc(S(=O)(=O)n2nc(C)c(C#N)c2N)cc1	2%	0	-10	-0.1	-13
CC(C)C1COS(=O)(=O)NC1CC(=O)SC(C)(C)C (centres undefined)	x	-1	x	0.1	x
O=C(NNc1ccccc1)C(CCO)C(=O)NNc1ccccc1	u	12	x	-3.0	-25
O=C(Sc1cccc2cccnc12)c1ccccc1Br	x	101	x	15	x
COC(=O)c1sc(N)c(C(=O)OC)c1CSc1nnc(-c2ccccc2Cl)n1C	-3%	24	-36	-0.5	8
CN(C)CCCN(C(=O)C1=COCCO1)c1nc2ccc(Br)cc2s1	x	-4	x	-0.8	x
CC1CC(NS(=O)(=O)c2cc3c4c(c2)CCN4C(=O)CC3)CC(C)(C)C1 (centres undefined)	x	-4	x	-0.6	x
Cc1ccc(Nc2c(F)c(F)c(F)c(F)c2C(=O)O)cc1	-5%	-2	x	-1.8	23
CCCCn1c(N)c(N(CCC(C)C)C(=O)C2CC(=O)N(CCc3ccc(OC)c(OC)c3)C2)c(=O)[nH]c1=O (centres undefined)	x	-8	x	-1.9	x
CC(C(=O)N(C)Cc1ccccc1)N1CCN(C/C=C/c2ccccc2)CC1 (centres undefined)	-3%	4	x	-0.8	x
O=C(CN1C(=O)NC2(CCCc3ccccc32)C1=O)NCc1ccc(Cl)cc1Cl (centres undefined)	x	2	x	1.6	x
CCOc1ccc(C(=O)CCC(=O)Nc2ccccc2C)cc1	x	2	x	-0.9	x
CSc1ccccc1C(=O)NC1CCCN(Cc2ccccc2F)C1 (centres undefined)	x	-6	x	0.3	x
O=S(=O)(c1ccc(-n2cnnn2)cc1)N1CCNCC1	x	-4	x	1.4	x
CC(OC(=O)C1CCN(c2ccc(C(F)(F)F)cn2)CC1)C(=O)Nc1ccc(S(N)(=O)=O)cc1 (centres undefined)	x	-2	x	2.3	x
O=C(O)CCCNC(=O)CCCNC(=O)C(c1ccccc1)c1ccccc1	-5%	0	-19	0.7	1
O=C(/C=C/c1ccccc1Cl)c1ccccc(=O)c1O	u	71	-17	12	-38
O=C(Nc1cccc([N+](=O)[O-])c1)C1CC(=O)N(C2CCCCC2)C1 (centres undefined)	-1%	-3	x	-0.6	-3
N=C1C(=O)OCC1c1ccccc1NC(=O)c1ccc(F)cc1 (centres undefined)	6%	-3	-12	1.3	-1
CN1CCN(CC(=O)Nc2ccc(Cl)cc2Cl)CC1	1%	1	-27	-1.2	-1
CC1(C)CC(=O)C(CC(=O)Nc2cc(C(F)(F)F)ccc2Cl)C(=O)C1	-9%	-1	x	4.6	2
Cc1nn(-c2ccccc2)c(C)c1NC(=O)COc1ccc([N+](=O)[O-])cc1	x	-12	x	-0.4	x
SMILES	Mtb growth	Mtb bLac sens	YopH PTP inh	RecA splice inh	Arbovirus inh	others
C=CCN(c1ccccc1)S(=O)(=O)c1cccc(C(=O)NC2CCC(O)CC2)c1 (centres undefined)	x	0	x	0.1	x
Cc1ccc(C)c(NS(=O)(=O)c2cc(C(=O)NCCSC3CCCCC3)ccc2C)c1	-1%	8	-38	3.2	0
COc1cc(/C=C/C(=O)O)cc(S(=O)(=O)Nc2ccc3c(c2)OCO3)c1OC	3%	1	x	5.2	1
CN1C(=O)CN=C(c2ccccc2)c2cc([N+](=O)[O-])ccc21	-8%	x	x	x	1
CCN(CC)CCCNC(=O)c1cc(Cl)c(NC(=O)C2=C(C)OCCS2)cc1OC	x	2	x	0.0	x
COC(=O)c1ccc(NC(=O)CN(c2ccc3c(c2)OCO3)S(C)(=O)=O)cc1	2%	-10	-25	-0.5	-1
Cc1ccc(/C=C2\SC(=S)N(c3cccnc3)C2=O)cc1	5%	3	x	0.7	22
CCCCSCCCNC(=O)c1ccc2c(c1)N(CC)C(=O)c1ccccc1S2=O (centres undefined)	x	3	x	4.4	x
CCOc1ccc2c(C)nc(NC3=NC(C)(C)C=C(C)N3)nc2c1	1%	23	-27	-1.0	5
COc1ccccc1N(CC(=O)Nc1ccccc1C(=O)N1CCOCC1)S(C)(=O)=O	x	0	x	-1.5	x
NS(=O)(=O)OCCCCCc1ccccc1	x	32	x	1.1	x
COc1cccc(CNC(=O)c2nnn(CC(=O)Nc3c(C)cccc3C)c2N)c1	x	0	x	-0.3	x
COc1ccccc1/C=C/C(=O)NCCc1ccccn1	x	2	x	1.3	x
Cc1ccc2cn[nH]c2c1NC(=S)NC(=O)c1ccccc1	-2%	-2	-44	11	8
O=C(Nc1cccc(Br)c1)c1ccc(Cl)c(S(=O)(=O)N2CCOCC2)c1	-1%	-10	-28	0.8	10
O=[N+]([O-])c1c(C(Cl)Cl)nn(-c2ccc(Cl)cc2)c1N1CCCCC1	u	100	-18	16	-3
COc1ccccc1C(=O)N1CCc2ccccc21	5%	-5	-41	-0.5	3
O=C(CSc1cccc[n+]1[O-])c1cc(Cl)ccc1Cl	u	100	x	-0.7	2
O=C(Nc1ccc(Cl)cc1F)c1ccccc1Br	-2%	38	-22	-0.5	-9
O=C(Nc1ccc(N2CCCC2)c(Cl)c1)c1cccs1	2%	7	x	x	-5
Cc1cc(C)c(OCCN(C)C)c(Cl)c1	-3%	5	x	0.7	7
O=C(Cc1noc2ccccc12)NNC(=S)Nc1ccc(Cl)cc1	2%	-2	x	0.9	2

From PubChem
